# Screens deposited in PubChem BioAssay by several laboratories.
# Beta2AR agonist: activates human beta-2 adrenergic receptor causing internalization; P07550; response, % (test concentration not listed); Am2.2-beta2AR cells, FAP receptor internalization, flow cytometry; reference of the scale not given here; 0.43% of 340,000 active; AID 504454;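 active means response above a set limit, near 3 SD of response in nonfluorescent compounds, cut at about 42% in these data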;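 further: stock transfer was 100 nL into about 11 µL; a reference agonist was the positive control; negative values mostly stem from fluorescent compounds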
# Target sequence (P07550 whole entry, looked up): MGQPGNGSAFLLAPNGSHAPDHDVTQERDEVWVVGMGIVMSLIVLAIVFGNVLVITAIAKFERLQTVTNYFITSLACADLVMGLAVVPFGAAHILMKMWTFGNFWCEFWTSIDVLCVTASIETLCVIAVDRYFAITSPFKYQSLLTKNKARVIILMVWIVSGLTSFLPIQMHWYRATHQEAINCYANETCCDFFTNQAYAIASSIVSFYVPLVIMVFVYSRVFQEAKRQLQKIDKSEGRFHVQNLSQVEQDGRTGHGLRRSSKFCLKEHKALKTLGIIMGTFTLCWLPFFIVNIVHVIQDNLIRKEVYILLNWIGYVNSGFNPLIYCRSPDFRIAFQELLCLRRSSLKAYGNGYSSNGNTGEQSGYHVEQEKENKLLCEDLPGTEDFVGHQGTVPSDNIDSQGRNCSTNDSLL
# Ecoli rRNA inh: selective bacterial rRNA inhibition in E. coli. E. coli WT GFP vs humanized-ribosome RFP mutants, fluorescence, 24 h; hits give low values; DMSO median 0, no signal -100. GFP signal change (wild-type ribosome), % (test concentration not listed). 1.6% of 350,000 active;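 active means significant combined selectivity score with lowered wild-type GFP, culture density cut under 30%, mutant RFP and density less affected; inactive means any of these conditions unmet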; further: one replicate is shown; some compounds called inactive have numbers as strong as hits
# Ecoli rRNA inh OD600: second read-out of Ecoli rRNA inh, no call of its own (marks repeat the call); OD600 change, %; measured here: OD600 growth;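 optical density of the mix in the first replicate; 0 = DMSO median and -100 = no signal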
# Ecoli rRNA inh RFP: recorded beside Ecoli rRNA inh, whose call it bears; RFP signal change, %; measured here: RFP humanized mutant strains;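 first replicate; 0 = DMSO median and -100 = no signal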
# An asterisk follows results filed as active. A portion of the library; count on the stated rates, not on these rows.
SMILES,Beta2AR agonist,Ecoli rRNA inh,Ecoli rRNA inh OD600,Ecoli rRNA inh RFP
CS(=O)(=O)c1ccc(C(=O)N2CCN(C(=O)c3ccco3)CC2)cc1,-3,7,9,0.0
O=C(COC(=O)c1cccc(Br)c1)NC(=O)NC1CCCC1,-8,-7,-10,0.7
Cc1nc2[nH]c(=S)[nH]c(=O)c2nc1C,1,5,21,-0.2
O=S(=O)(c1ccc(Br)cc1F)N1CC[C@H](O)C1,-5,11,2,-3.2
CCOC(=O)/C=C1/SCC(=O)N1CC(=O)c1ccc[nH]1,-2,4,9,6.5
CCCCn1c(N)c(N(Cc2ccccc2OC)C(=O)CSCC(=O)Nc2ccc(C)cc2)c(=O)[nH]c1=O,4,-1,2,-0.9
COc1ccccc1C(=O)OCC(=O)Nc1cccc(S(=O)(=O)N2CCCC2)c1,-2,1,-4,1.2
COc1ccc(CCc2cc(OC)c(OC)c(OC)c2)cc1,16,-9,-30,-7.0
O=C1NN=C(c2ccccc2)C1Cc1ccccc1 (stereo unspecified),-12,-56,-76,-16
CCCCn1c(N)c(N(C(=O)CSc2nnnn2-c2ccccc2C)C2CCCC2)c(=O)[nH]c1=O,0,2,12,-1.6
COC(=O)C1c2ccccc2-c2ccccc21,-1,10,2,1.7
CCOC(=O)C1CCCN(c2c(N3CCN(c4ccccn4)CC3)c(=O)c2=O)C1 (stereo unspecified),-6,2,-1,-1.4
CN1CCN(C(=O)OCCOCCOC(=O)N2CCN(C)CC2)CC1,-2,13,10,0.1
CC(C)Cn1c(N)c(C(=O)CSc2nnc(C3CC3)n2C2CC2)c(=O)n(C)c1=O,3,7,16,3.7
CCN1C(C)=CC(=O)[C@@H](O)[C@H]1c1ccccc1Br,-7,-1,11,2.1

# Given tab-delimited: 2 of the compounds above.
Structure	Beta2AR agonist	Ecoli rRNA inh	Ecoli rRNA inh OD600	Ecoli rRNA inh RFP
CCCCn1c(N)c(N(Cc2ccccc2OC)C(=O)CSCC(=O)Nc2ccc(C)cc2)c(=O)[nH]c1=O	4	-1	2	-0.9
COc1ccccc1C(=O)OCC(=O)Nc1cccc(S(=O)(=O)N2CCCC2)c1	-2	1	-4	1.2

# (cont.)
SMILES,Beta2AR agonist,Ecoli rRNA inh,Ecoli rRNA inh OD600,Ecoli rRNA inh RFP
COc1ccc(CN(C)C(=O)Cn2cnc(C(=O)Nc3ccc(C)c(C)c3)n2)cc1OC,-5,0,-8,0.5
CCSc1nsc(NC(=O)Nc2ccccc2Cl)n1,1,-35,-55,1.1
COc1ccc(NC(=O)CN(C)S(=O)(=O)c2ccc(Cl)cc2)cn1,-1,4,10,-0.4
O=C(O)C1CCCCN1C(=O)c1ccc(S(=O)(=O)N2CCCC2)cc1 (stereo unspecified),-6,7,10,-1.6
Cn1cc(S(=O)(=O)NC[C@H]2O[C@@H](n3cnc4c(N)ncnc43)[C@H](O)[C@@H]2O)cn1,1,10,7,-0.1
CN(C(=O)c1ccc(NC(=O)Cc2ccc(NC(=O)C3CCCN(C(=O)C4CCCCC4)C3)cc2)cc1)C1CCCC1 (stereo unspecified),-6,-3,-4,-3.5
COc1ccc(NC(=O)CN2CCc3ccccc3C2)cc1,-2,10,14,2.6
CC1CN(C2CCCCC2)C(=S)NC1=O (stereo unspecified),-4,4,1,0.9
CC(C)(C)OC(=O)N(CCc1ccccc1)Cc1ccccc1OCc1cccc(NC(=O)C2CC2)c1,4,12,15,1.0
COc1ccc(C)cc1NC(=O)c1cnc2scc(C)n2c1=O,-2,4,9,1.3
C#CC(C)(O)C1CC(CC(=O)O)C1(C)C (stereo unspecified),-3,1,3,-1.8
COc1cccc(CN(C)CC(=O)Nc2cccc(S(=O)(=O)N(C)c3ccccc3)c2)c1OC,18,-38,-52,-7.2
CC1CCN(C(=O)CN2C(=O)NC(c3ccccc3)(c3ccccc3)C2=O)CC1,-3,2,11,-1.8
COCCN(C(=O)Cc1ccc(S(=O)(=O)N2CCOCC2)s1)c1c(N)n(CC(C)C)c(=O)[nH]c1=O,33,7,-1,-7.7
CC(=O)c1ccc(S(=O)(=O)N(CC(=O)NC2CC2)Cc2ccc(F)cc2)cc1,1,0,5,-0.3
Cn1c(SCC(=O)N2CC(=O)Nc3ccccc32)nnc1C(F)(F)F,5,4,4,-1.9
CCc1nnc(NC(=O)C2CCN(C(=O)c3ccccc3C)CC2)s1,-2,7,6,0.6
O=C(Cc1ccccc1)c1ccc(O)cc1,-1,-10,2,2.4
CCCCCCCCNS(=O)(=O)CCNC1CCCCC1,2,-8,-34,-0.9
O=C(O)c1ccccc1C(c1ccccc1)c1ccccc1O (stereo unspecified),-8,7,13,-1.7
O=S(=O)(c1cc(C(F)(F)F)ccc1Cl)N1CCN(c2ncnc3ccccc23)CC1,-13,-25,-60,-0.3
C1CC1C(=NN=C(C1CC1)C1CC1)C1CC1,-3,3,18,-1.2
O=C(Cc1ccccc1[N+](=O)[O-])c1ccc2c(c1)OCO2,-1,-7,-32,-12
N#Cc1ccc(C(=O)OCC(=O)NC(=O)NCc2ccccc2)cc1,1,8,18,2.0
CN(C(=O)CSc1nnc(C2CC2)n1C)C1CCCc2ccccc21 (stereo unspecified),5,11,5,1.8
COC(=O)[C@H](Cc1ccc(O)cc1)NCCCn1cnc(C(=O)Nc2ccc(C)c(C)c2)n1,8,-15,-11,7.0
O=[N+]([O-])c1cccc2cnccc12,1,11,10,3.9
NS(=O)(=O)c1ccc(N2C(=O)C3C4CC(C(Br)C4Br)C3C2=O)cc1 (stereo unspecified),3,10,18,4.5
COc1ccc(Cl)cc1C(=O)NNC(=O)C1CCCO1 (stereo unspecified),-15,0,7,0.0
CCOc1ccccc1NC(=O)COC(=O)c1c(CC)noc1C,2,-4,-7,-0.9
COC(=O)c1ccc2c(c1)c(-c1ccccc1)c(-c1ccccc1)n2C,6,5,-4,-0.2
CC12CC3CC1C(C(=O)O2)C3C(=O)O (stereo unspecified),7,6,15,-4.4
C=CC(C)(C)c1c2occc2c(O)c2ccc(=O)oc12,3,-42,-63,-17
Cc1ccc(C(=O)OCC(=O)NCc2cccc(Cl)c2)cc1S(=O)(=O)N1CCCCC1,-1,-5,-12,5.5
Cc1cc(C)n(-c2ccc(C(=O)N3CCN(S(=O)(=O)c4cccc(Br)c4)CC3)cc2)n1,3,-19,-37,-4.1
Cc1cc(=O)oc2cc(OCC(=O)Nc3c(C)n(C)n(-c4ccccc4)c3=O)c(Cl)cc12,-3,-5,3,0.4
COC(=O)c1ccccc1NC(=O)COC(=O)Cc1ccc(S(=O)(=O)N2CCOCC2)s1,3,2,7,1.5
COc1cc(C(=O)N2CCN(S(=O)(=O)c3ccc(C)cc3)CC2)ccc1OCC(=O)N1CCOCC1,-2,7,8,-0.1
O=C(CC(CC(=O)c1ccccc1)c1ccncc1)c1ccccc1,10,-21,-34,-3.6
Cc1c(Cl)cnc(NC(=O)COC(=O)/C=C/c2ccco2)c1Cl,-2,4,5,1.7
O=C(NCc1ccccc1)C1CCN(S(=O)(=O)c2cccc3cccnc23)CC1,-4,2,3,8.3
Cc1c(C(=O)NCc2ccccc2CN2CCCC2)oc2ccccc12,7,-5,-14,0.3
CCOC(CNCc1cc(C)c2[nH]c3ccccc3c2c1C)OCC,20,-6,-34,2.9
Cc1cc(C(=O)OCC(=O)NC2(C#N)CCCCC2)c(C)o1,-6,0,-1,-3.3
O=C(Nc1ccc2c(c1)C(=O)c1ccccc1-2)c1ccccc1,1,13,19,2.5

# Entries of single compounds, quoted from the list. Order of values: Beta2AR agonist	Ecoli rRNA inh	Ecoli rRNA inh OD600	Ecoli rRNA inh RFP
# `COC(=O)c1ccc2c(c1)c(-c1ccccc1)c(-c1ccccc1)n2C` across the screens: 6	5	-4	-0.2
# `C=CC(C)(C)c1c2occc2c(O)c2ccc(=O)oc12` across the screens: 3	-42	-63	-17
# `Cc1cc(=O)oc2cc(OCC(=O)Nc3c(C)n(C)n(-c4ccccc4)c3=O)c(Cl)cc12` across the screens: -3	-5	3	0.4
# `COc1cc(C(=O)N2CCN(S(=O)(=O)c3ccc(C)cc3)CC2)ccc1OCC(=O)N1CCOCC1` across the screens: -2	7	8	-0.1
# `Cc1ccc(C(=O)OCC(=O)NCc2cccc(Cl)c2)cc1S(=O)(=O)N1CCCCC1` across the screens: -1	-5	-12	5.5

# The results go on:
SMILES,Beta2AR agonist,Ecoli rRNA inh,Ecoli rRNA inh OD600,Ecoli rRNA inh RFP
CC1(c2ccccc2)CCC(=O)NC1 (stereo unspecified),-1,5,6,0.9
COc1ccc(C(=Cc2ccccc2[N+](=O)[O-])C(=O)O)cc1,4,8,-18,-22
CCN(CC)S(=O)(=O)c1ccc(O)c(NC(=O)COc2ccc(S(=O)(=O)N3CCOCC3)cc2)c1,-2,9,7,-1.0
O=c1cc(-c2ccc(OCc3ccccc3)cc2)oc2cc(OCc3ccccc3)cc(OCc3ccccc3)c12,-2,10,13,-3.6
O=C(CC(C(=O)c1ccccc1)c1ccccc1)c1ccccc1 (stereo unspecified),15,9,-14,2.8
CCC1([N+](=O)[O-])COC(c2ccc(C(C)C)cc2)OC1 (stereo unspecified),-1,-13,-22,-5.3
O=C(C[C@H]1C[C@H](C(=O)N2CCOCC2)[C@@]2(CCC3CCCC3)c3[nH]c4cc(-c5ccco5)ccc4c3CCN2C1=O)NCCCn1ccnc1,6,-5,7,6.6
CCN(C(=O)COC(=O)c1cccc2ccccc12)c1c(N)n(Cc2ccccc2)c(=O)[nH]c1=O,-4,3,-2,1.3
CC(Sc1nnc(-c2cccnc2)n1N)C(=O)Nc1ccc2c(c1)OCCO2 (stereo unspecified),-3,13,5,-0.4
OC(c1ccccc1)C(Nc1ccccn1)c1ccccc1 (stereo unspecified),-8,1,0,-1.7
CC[C@@H]1C(c2ccc(F)cc2)=NN(c2ccccc2)[C@H]1C(=O)N1CCOC1=O,9,14,1,3.6
O=C(Nc1ccc(C(=O)N2CCOCC2)cc1)C1CC1,-11,18,6,0.9
